Assay outcomes deposited in PubChem by several laboratories.
ALR H2O2 inh = inhibitors of human sulfhydryl oxidase ALR. P55789. purified ALR, DTT oxidation, H2O2 HRP-luminol luminescence. inhibition, % (test concentration not listed). 290,000 tested, 3.8% active. AID 485317;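 active = mean and each replicate at 75% or more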;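 note: stock transfer was 7.5 nL into about 7.5 µL; 0% = neutral wells and 100% = wells with inactivated enzyme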
Target sequence (P55789 whole entry, looked up): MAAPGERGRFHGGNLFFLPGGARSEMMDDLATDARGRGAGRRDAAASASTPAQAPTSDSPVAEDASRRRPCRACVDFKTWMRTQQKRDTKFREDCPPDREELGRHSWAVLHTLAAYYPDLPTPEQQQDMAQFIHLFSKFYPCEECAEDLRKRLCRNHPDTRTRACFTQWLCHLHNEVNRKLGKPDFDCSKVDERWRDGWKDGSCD
HNF4A DNA FP = change in binding of human HNF4 alpha to DNA. P41235. HNF4a-FITC DNA binding, fluorescence polarization, 1 h. activity change, % at 10 µM. 360,000 tested, 0.3% active. AID 1224865; in the data active = activity change above about 30%, passing the limit was not always enough;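 note: controls were the assay level and a saturating level of protein; the project sought stronger binding though the title names inhibitors; some compounds called inactive have numbers as strong as hits; positive values seem to mean higher polarization but the record does not say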
B2AR ag = activates human beta-2 adrenergic receptor causing internalization. Am2.2-beta2AR cells, FAP receptor internalization, flow cytometry; reference of the scale not given here. AID 504454. P07550. 340,000 tested, 0.43% active. response, % (no concentration beside the values);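 active = response above a set limit, near 3 SD of response in nonfluorescent compounds, cut at about 42% in these data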;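 note: stock transfer was 100 nL into about 11 µL; a reference agonist was the positive control; negative values mostly stem from fluorescent compounds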
Target sequence (P07550 whole entry, looked up): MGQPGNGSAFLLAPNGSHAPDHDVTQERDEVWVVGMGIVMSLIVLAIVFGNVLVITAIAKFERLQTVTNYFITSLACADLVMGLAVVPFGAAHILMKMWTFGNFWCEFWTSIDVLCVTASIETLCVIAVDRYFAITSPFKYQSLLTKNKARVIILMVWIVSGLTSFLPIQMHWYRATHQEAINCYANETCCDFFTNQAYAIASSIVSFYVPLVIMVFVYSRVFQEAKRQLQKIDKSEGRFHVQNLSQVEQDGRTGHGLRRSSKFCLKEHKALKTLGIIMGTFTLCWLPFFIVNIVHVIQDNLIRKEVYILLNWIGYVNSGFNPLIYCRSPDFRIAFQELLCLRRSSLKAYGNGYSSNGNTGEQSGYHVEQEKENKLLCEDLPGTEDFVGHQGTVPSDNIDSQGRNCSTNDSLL
FGF22 binding = binders of recombinant human FGF22 by thermal shift | SYPRO orange fluorescence; percent of sucrose octasulfate shift, DMSO zero | AID 651658 | Q9HCT0 | 340,000 tested, 1.5% active | calls only at 9.99 µM;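 active = melting point raised past a set limit in the mean and every replicate; three in four hits are not shown here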
Target sequence (Q9HCT0 whole entry, looked up): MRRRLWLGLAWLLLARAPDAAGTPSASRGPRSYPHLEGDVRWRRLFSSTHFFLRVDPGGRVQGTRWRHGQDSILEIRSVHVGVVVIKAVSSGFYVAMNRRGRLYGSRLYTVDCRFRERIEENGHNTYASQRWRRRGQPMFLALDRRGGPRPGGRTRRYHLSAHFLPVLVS
rRNA inh HTS = inhibits bacterial ribosomal RNA function over humanized ribosomes; E. coli WT GFP vs humanized-ribosome RFP mutants, fluorescence, 24 h; stronger effect = lower value; DMSO median 0, no signal -100; GFP signal change (wild-type ribosome), % (test concentration not listed); 350,000 tested, 1.6% active;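 active = significant combined selectivity score with lowered wild-type GFP, culture density cut under 30%, mutant RFP and density less affected; inactive = any of these conditions unmet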; note: one replicate is shown; some compounds called inactive have numbers as strong as hits
E coli growth = E. coli growth inhibition. Escherichia coli growth, OD600, 23 h; stronger effect = lower value. AID 1053175. OD600 absorbance (test concentration not listed). 330,000 tested, 0.21% active;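 active = OD600 absorbance below the run mean of sample wells minus 3.6 SD, in any replicate, cut at about 0.56 in these data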;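 note: stock transfer was 300 nL into about 60 µL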
UCH37 inh = inhibitors of human deubiquitinating enzyme UCH37; AID 588478; purified proteasome/UCH37, Ub-AMC cleavage fluorescence; inhibition, % (no concentration beside the values); 330,000 tested, 0.33% active;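 active = mean of two replicates above 20%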;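 note: 0% = compound-free wells with enzyme and 100% = wells lacking proteasome; stock transfer was 100 nL into about 20 µL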
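Test system – human UCH37 enzyme supplied as purified proteasome complex · Incubation – 30 min preincubation with enzyme, 25 min cleavage at room temperature · Detection – AMC fluorescence from Ub-AMC cleavage, excitation 355 nm, emission 460 nm · Benchmarks – no-proteasome wells (full inhibition) and compound-free wells (no inhibition)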
rRNA inh HTS OD600 = further read-out of rRNA inh HTS, marked with its call; OD600 change, %; measured here: OD600 growth;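 optical density of the mix in the first replicate; 0 = DMSO median and -100 = no signal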
rRNA inh HTS RFP = second read-out of rRNA inh HTS, no call of its own (marks repeat the call); RFP signal change, %; measured here: RFP humanized mutant strains;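 first replicate; 0 = DMSO median and -100 = no signal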
* marks the source's active call; other numbers are inactive results.

What do the screens show for `Cc1ccc(-c2cnc(SCC(=O)N3CCCc4ccccc43)n2C)cc1`?
ALR H2O2 inh: -6; HNF4A DNA FP: -0.7; B2AR ag: -1; E coli growth: 0.68; UCH37 inh: 0.7

How did CC(C)(C)OC(=O)N1CCC(CNC(=O)c2ccc(F)cc2)CC1 do in these assays?
ALR H2O2 inh: -16; HNF4A DNA FP: -3.4; B2AR ag: -3; FGF22 binding: inactive; rRNA inh HTS: -9; E coli growth: 0.7; UCH37 inh: 3.9; rRNA inh HTS OD600: -4; rRNA inh HTS RFP: -1.4

Results for O=C(COC(=O)c1ccc(-c2nnc(-c3ccccc3)o2)cc1)c1ccccc1 ?
ALR H2O2 inh: -9; HNF4A DNA FP: -3.5; B2AR ag: 2; FGF22 binding: inactive; rRNA inh HTS: 8; E coli growth: 0.73; UCH37 inh: 1.3; rRNA inh HTS OD600: 20; rRNA inh HTS RFP: 2.6

How did Cc1ccc(NC(=O)c2oc3c(c2C)C(=O)CC(C)(C)C3)cc1 do in these assays?
ALR H2O2 inh: -7; HNF4A DNA FP: 0.9; B2AR ag: -7; E coli growth: 0.7; UCH37 inh: 2.6

How did COc1ccc(Cn2c(C3CC3)nc3ccc(NC(=O)C4CC4)cc3c2=O)cc1 do in these assays?
ALR H2O2 inh: 44; HNF4A DNA FP: 2.9; B2AR ag: -9; E coli growth: 0.71; UCH37 inh: -2.0

What do the screens show for `COc1ccccc1Oc1c(C)oc2cc(OC(=O)c3ccco3)ccc2c1=O`?
ALR H2O2 inh: 12; HNF4A DNA FP: 2.6; B2AR ag: 8; E coli growth: 0.69; UCH37 inh: inactive

What do the screens show for `CCOC(=O)N1CCN(C(=O)CS(=O)(=O)Cc2nc(-c3ccccc3F)oc2C)CC1`?
ALR H2O2 inh: -16; HNF4A DNA FP: -4.2; B2AR ag: -6; FGF22 binding: inactive; rRNA inh HTS: 12; E coli growth: 0.71; UCH37 inh: 1.5; rRNA inh HTS OD600: -1; rRNA inh HTS RFP: -0.4

What do the screens show for `Cc1ccc(C(=O)C2=C(O)C(=O)N(Cc3ccco3)C2c2cccc(Cl)c2)o1` (stereo unspecified)?
ALR H2O2 inh: 6; HNF4A DNA FP: -0.1; B2AR ag: 1; FGF22 binding: inactive; rRNA inh HTS: -25; rRNA inh HTS OD600: -53; rRNA inh HTS RFP: 2.1

How did CCC1COCCS(=O)(=O)N1Cc1ccccc1C (stereo unspecified) do in these assays?
ALR H2O2 inh: 0; HNF4A DNA FP: 4.0; B2AR ag: -8; FGF22 binding: inactive; rRNA inh HTS: 5; E coli growth: 0.68; UCH37 inh: -1.6; rRNA inh HTS OD600: 12; rRNA inh HTS RFP: -4.0

What do the screens show for `COCCNC(=O)c1ccc(Cl)c(S(=O)(=O)Nc2cccc(C)c2C)c1`?
ALR H2O2 inh: -2; HNF4A DNA FP: 0.8; B2AR ag: -11; FGF22 binding: inactive; rRNA inh HTS: -2; E coli growth: 0.72; UCH37 inh: 1.0; rRNA inh HTS OD600: -1; rRNA inh HTS RFP: 0.1

Results for CCOC(=O)[C@]12CCC=C1N(Cc1ccc(Cl)cc1Cl)C(=O)[C@H](CC(=O)N1CCCC1)C2 ?
HNF4A DNA FP: 1.4; FGF22 binding: inactive; rRNA inh HTS: -37; rRNA inh HTS OD600: -69; rRNA inh HTS RFP: 5.1

What do the screens show for `CC(C)CC(NS(=O)(=O)OCC(Cl)(Cl)Cl)c1ccccc1` (stereo unspecified)?
ALR H2O2 inh: 1; HNF4A DNA FP: 4.2; B2AR ag: 2; FGF22 binding: inactive; rRNA inh HTS: -32; E coli growth: 0.67; UCH37 inh: -0.7; rRNA inh HTS OD600: -66; rRNA inh HTS RFP: 10

How did Cc1cccc(N2CCN(C(=O)CN3C(=O)NC4(CCCCCC4)C3=O)CC2)c1C do in these assays?
HNF4A DNA FP: 2.6; B2AR ag: 1; FGF22 binding: inactive; rRNA inh HTS: -29; E coli growth: 0.69; UCH37 inh: 2.4; rRNA inh HTS OD600: -33; rRNA inh HTS RFP: -4.6

What do the screens show for `CCCNC(=O)COc1ccc(-c2nn(C)c(=O)c3ccccc23)cc1`?
ALR H2O2 inh: -66; HNF4A DNA FP: 5.6; B2AR ag: 7; FGF22 binding: inactive; rRNA inh HTS: -15; E coli growth: 0.62; UCH37 inh: 3.6; rRNA inh HTS OD600: -5; rRNA inh HTS RFP: -0.5

How did CCC1(c2ccc(F)cc2)NC(=O)N(CC(=O)NCc2ccc(F)cc2)C1=O (stereo unspecified) do in these assays?
ALR H2O2 inh: -7; HNF4A DNA FP: 3.6; B2AR ag: 5; FGF22 binding: inactive; rRNA inh HTS: 2; E coli growth: 0.64; UCH37 inh: 2.5; rRNA inh HTS OD600: 7; rRNA inh HTS RFP: 3.8

How did CCCS(=O)(=O)c1c(S(=O)(=O)CCC)c2c(C)cccn2c1C(=O)OC do in these assays?
ALR H2O2 inh: -3; HNF4A DNA FP: -0.9; B2AR ag: 5; E coli growth: 0.68; UCH37 inh: -5.0

What do the screens show for `COc1ccc(CNC(=O)CN(c2ccc(C(C)=O)cc2)S(=O)(=O)c2ccc(C)cc2)cc1OC`?
ALR H2O2 inh: 15; HNF4A DNA FP: -2.1; B2AR ag: -2; FGF22 binding: inactive; rRNA inh HTS: 5; E coli growth: 0.71; UCH37 inh: 0.1; rRNA inh HTS OD600: 3; rRNA inh HTS RFP: 0.5

How did C(=N\n1cnnc1)/c1ccc(OCc2cccc3ccccc23)cc1 do in these assays?
ALR H2O2 inh: -15; HNF4A DNA FP: 1.2; B2AR ag: -10

Results for Nc1ncnn1Cc1ccccc1 ?
HNF4A DNA FP: -0.5; FGF22 binding: inactive; rRNA inh HTS: 15; rRNA inh HTS OD600: 20; rRNA inh HTS RFP: 4.7

What do the screens show for `O=[N+]([O-])c1ccc(O)c(/C=N/Nc2nn[nH]n2)c1`?
ALR H2O2 inh: 84*; HNF4A DNA FP: -0.6; B2AR ag: 4; FGF22 binding: inactive; rRNA inh HTS: 7; rRNA inh HTS OD600: 14; rRNA inh HTS RFP: 3.7

4 compounds picked at random from those above, as already listed:
How did CCC1COCCS(=O)(=O)N1Cc1ccccc1C (stereo unspecified) do in these assays?
ALR H2O2 inh: 0; HNF4A DNA FP: 4.0; B2AR ag: -8; FGF22 binding: inactive; rRNA inh HTS: 5; E coli growth: 0.68; UCH37 inh: -1.6; rRNA inh HTS OD600: 12; rRNA inh HTS RFP: -4.0

How did C(=N\n1cnnc1)/c1ccc(OCc2cccc3ccccc23)cc1 do in these assays?
ALR H2O2 inh: -15; HNF4A DNA FP: 1.2; B2AR ag: -10

What do the screens show for `O=[N+]([O-])c1ccc(O)c(/C=N/Nc2nn[nH]n2)c1`?
ALR H2O2 inh: 84*; HNF4A DNA FP: -0.6; B2AR ag: 4; FGF22 binding: inactive; rRNA inh HTS: 7; rRNA inh HTS OD600: 14; rRNA inh HTS RFP: 3.7

What do the screens show for `COc1ccccc1Oc1c(C)oc2cc(OC(=O)c3ccco3)ccc2c1=O`?
ALR H2O2 inh: 12; HNF4A DNA FP: 2.6; B2AR ag: 8; E coli growth: 0.69; UCH37 inh: inactive

Next part:
Results for COc1cc(C2Nc3ccccc3C(=O)N2c2ccccc2)ccc1O (stereo unspecified) ?
HNF4A DNA FP: 3.0; B2AR ag: 0; E coli growth: 0.72; UCH37 inh: -36

What do the screens show for `COc1ccc(S(=O)(=O)Nc2c(O)ccc3ccccc23)cc1OC`?
ALR H2O2 inh: 54; HNF4A DNA FP: 7.9; B2AR ag: -11; FGF22 binding: inactive; rRNA inh HTS: 33; E coli growth: 0.67; UCH37 inh: 2.5; rRNA inh HTS OD600: -10; rRNA inh HTS RFP: 25

What do the screens show for `O=c1cc2oc3cc(O)c(O)cc3c(-c3ccccc3O)c-2cc1O`?
HNF4A DNA FP: -29; B2AR ag: -29; E coli growth: 0.72; UCH37 inh: 15

How did CCN1CCN(C2CCCCC2NS(=O)(=O)c2ccc(Cl)cc2)CC1 (stereo unspecified) do in these assays?
ALR H2O2 inh: -5; HNF4A DNA FP: -2.1; B2AR ag: -7; E coli growth: 0.66; UCH37 inh: 0.7

What do the screens show for `COc1coc(/C=C/C(=O)O)cc1=O`?
ALR H2O2 inh: -16; HNF4A DNA FP: -1.2; B2AR ag: -6; FGF22 binding: inactive; rRNA inh HTS: 3; E coli growth: 0.7; UCH37 inh: 3.8; rRNA inh HTS OD600: 7; rRNA inh HTS RFP: -1.6

Results for C=CCOCCN1C(=O)C2C(c3ccccc3)C=CC(c3ccccc3)C2C1=O (stereo unspecified) ?
ALR H2O2 inh: 7; HNF4A DNA FP: -1.2; B2AR ag: -2; E coli growth: 0.71; UCH37 inh: 1.1

How did CC(CCc1ccccc1)NC(=O)CSc1ccccn1 (stereo unspecified) do in these assays?
ALR H2O2 inh: -3; HNF4A DNA FP: 0.0; B2AR ag: 0; FGF22 binding: inactive; rRNA inh HTS: 1; E coli growth: 0.68; UCH37 inh: -0.3; rRNA inh HTS OD600: 3; rRNA inh HTS RFP: 2.0

What do the screens show for `COc1ccccc1OCCCC(=O)Nc1nccs1`?
ALR H2O2 inh: -6; HNF4A DNA FP: 1.7; B2AR ag: 76*; FGF22 binding: inactive; rRNA inh HTS: 10; E coli growth: 0.69; UCH37 inh: 4.6; rRNA inh HTS OD600: 9; rRNA inh HTS RFP: -0.1

How did CC(C)(C)C1(C)OC(C(N)=O)C(C(N)=O)O1 (stereo unspecified) do in these assays?
ALR H2O2 inh: -2; HNF4A DNA FP: 2.5; B2AR ag: 4; E coli growth: 0.73; UCH37 inh: 1.3

Results for CNS(=O)(=O)c1cccc(C(=O)OC2CCCCC2=O)c1 (stereo unspecified) ?
ALR H2O2 inh: -6; HNF4A DNA FP: -2.6; B2AR ag: 8; E coli growth: 0.73; UCH37 inh: 3.9

What do the screens show for `O=C(CCc1nc2ccccc2s1)NC1CCOC1=O` (stereo unspecified)?
ALR H2O2 inh: 41; HNF4A DNA FP: -3.5; B2AR ag: -3; FGF22 binding: inactive; rRNA inh HTS: 8; E coli growth: 0.71; UCH37 inh: 3.4; rRNA inh HTS OD600: 4; rRNA inh HTS RFP: -0.2

How did COc1ccc(/C=C(/NC(=O)c2ccccc2)C(=O)N/N=C/c2ccncc2)cc1 do in these assays?
ALR H2O2 inh: 0; HNF4A DNA FP: -1.1; B2AR ag: 2; FGF22 binding: inactive; rRNA inh HTS: -12; rRNA inh HTS OD600: -2; rRNA inh HTS RFP: 0.1

What do the screens show for `Cc1nonc1C1CCCN1Cc1nc(-c2ccccc2Cl)oc1C` (stereo unspecified)?
ALR H2O2 inh: 2; HNF4A DNA FP: 1.8; B2AR ag: -8; FGF22 binding: inactive; rRNA inh HTS: -19; E coli growth: 0.68; UCH37 inh: -1.8; rRNA inh HTS OD600: -20; rRNA inh HTS RFP: -0.9

Results for Cc1nnc2c(-c3ccccc3)nc3ccccc3n12 ?
ALR H2O2 inh: 1; HNF4A DNA FP: 4.3; B2AR ag: -7; E coli growth: 0.78; UCH37 inh: 3.6

How did Cc1ccc2nc(-c3ccccc3N)[nH]c2c1 do in these assays?
ALR H2O2 inh: 52; HNF4A DNA FP: 1.1; B2AR ag: -6; FGF22 binding: inactive; rRNA inh HTS: -42; E coli growth: 0.69; UCH37 inh: -141; rRNA inh HTS OD600: -59; rRNA inh HTS RFP: 5.8

These rows are one share of the data, so the mix of outcomes need not match the whole.
